Mtb growth: M. tuberculosis H37Rv growth inhibitors, H37Rv strain (AID 1626). inhibition, % at 10 µM, or IC50 in µM where a hit was titrated. hit rate 0.95% among 220,000. M. tuberculosis H37Rv growth inhibition; higher % means a stronger effect;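 active means confirmed in a dose series; inconclusive means inhibition above 80% but not taken into the dose series; inactive means below 80% or under 30% at every dose of the series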;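 further: bacteria incubated seven days before Alamar blue readout; 0% = bacteria only wells and 100% = bacteria with antibiotic wells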
YopH inh: YopH tyrosine phosphatase inhibitors, primary screen, biochemical, fluorescence Ex485/Em525 | YopH tyrosine phosphatase [Yersinia enterocolitica] | inhibition, %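 (about 10 µM by stock and volumes)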 | hit rate 0.16% among 140,000;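 active means inhibition of 50% or more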;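 further: controls were vehicle for no effect and minimum signal wells for full effect; inactives centre near -20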
RecA intein inh: Mtb RecA intein splicing inhibitors, primary screen, biochemical, fluorescence, HTS; cell-free RecA intein splicing; inhibition, %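 (about 9 µM by stock and volumes)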; hit rate 0.75% among 290,000; in the data active means inhibition above about 30%; inconclusive means no clear call, values can overlap the other calls;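 further: 0% = vehicle wells and 100% = reference inhibitor control wells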
Target sequence (P9WHJ3 whole entry, looked up): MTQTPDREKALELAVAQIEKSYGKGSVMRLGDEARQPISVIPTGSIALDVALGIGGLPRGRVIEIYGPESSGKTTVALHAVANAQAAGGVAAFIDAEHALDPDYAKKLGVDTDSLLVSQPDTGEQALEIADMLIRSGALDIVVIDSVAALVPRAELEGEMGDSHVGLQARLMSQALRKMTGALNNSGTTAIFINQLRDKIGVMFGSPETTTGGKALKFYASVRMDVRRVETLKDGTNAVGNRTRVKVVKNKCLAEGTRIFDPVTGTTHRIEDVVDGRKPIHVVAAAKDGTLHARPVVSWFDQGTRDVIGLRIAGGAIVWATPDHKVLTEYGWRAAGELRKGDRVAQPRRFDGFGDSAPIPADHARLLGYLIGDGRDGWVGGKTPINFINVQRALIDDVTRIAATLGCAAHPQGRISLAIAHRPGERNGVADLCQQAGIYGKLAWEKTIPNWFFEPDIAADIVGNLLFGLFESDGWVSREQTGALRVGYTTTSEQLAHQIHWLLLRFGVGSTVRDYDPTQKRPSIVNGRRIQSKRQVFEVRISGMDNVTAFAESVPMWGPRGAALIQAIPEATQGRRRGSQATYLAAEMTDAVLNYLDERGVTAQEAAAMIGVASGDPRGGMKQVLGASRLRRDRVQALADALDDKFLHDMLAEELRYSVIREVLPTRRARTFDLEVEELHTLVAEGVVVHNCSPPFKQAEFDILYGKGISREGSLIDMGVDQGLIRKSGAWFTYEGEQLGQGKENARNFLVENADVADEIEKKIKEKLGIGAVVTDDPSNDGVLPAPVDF
Arbovirus anti: antivirals against arbovirus infection, primary screen, cell-based, full library, 10K replicate subset | arbovirus infection cell-based antiviral screen | inhibition, % at 10 µM | hit rate 0.37% among 200,000;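 active means inhibition from about 30%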;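 further: bluetongue infection of BSR cells; cell survival read as ATP light after 72 h; 0% = infected wells without compound and 100% = uninfected wells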
Mtb bLac sens: beta-lactam sensitization of Mtb H37Rv, H37Rv. M. tuberculosis H37Rv growth with meropenem, percent inhibition; hits of this screen are not shown here. inhibition, % at 25 µM. hit rate 0.27% among 330,000;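 active means about 74% or more and at least 40 points above the plate without the antibiotic, then above 30% in a dose series; inconclusive means first-round hits that could not be retested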;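 further: growth measured after seven days incubation then overnight dye step; 0% = bacteria only wells and 100% = bacteria with antibiotic; twin plates without the antibiotic show which effects depend on it; some results filed as inactive read as strong as hits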
Arbovirus anti repeat: further read-out of Arbovirus anti, marked with its call; inhibition, %; measured here: 10K subset replicate screen; many hits read low in the repeat;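 first of two repeat runs on a subset; 0% = infected and 100% = uninfected wells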
An asterisk follows results filed as active; ? = inconclusive; . = not tested or not shown. A portion of the library; the hit share may differ from the screen's.

SMILES	Mtb growth	YopH inh	RecA intein inh	Arbovirus anti	Mtb bLac sens	others
CC(CN1CCNCC1)(NS(=O)(=O)c1ccccc1)c1ccccc1 (centres undefined)	-5%	-29	-3.0	3	69
Cc1nc2ccc(S(=O)(=O)NCC(=O)Nc3ccc(F)cc3)cc2s1	.	.	-0.4	.	-3
COc1cccc(-c2nc(Cc3ccc(OC)c(OC)c3)no2)c1	4%	3	24	1	-5
COc1ccc(CC2(C)OC(c3ccc(Cl)cc3)=NN2C(C)=O)cc1 (centres undefined)	2%	-18	17	0	7
COc1ccc(C2=NO[C@@H]3C(=O)N(C4CCCCC4)C(=O)[C@H]23)cc1OC	-1%	-54	-0.3	10	4
CCOC(=O)c1ccc(COC(=O)c2ccc3c(c2)-c2ccccc2C3=O)cc1	12%	-36	1.9	-3	9
Cc1ccc(N(C)S(=O)(=O)c2ccc(-c3ccc(=O)[nH]n3)s2)cc1C	.	.	2.0	.	8
CCNc1nc(NCC)nc(N/N=C/c2ccc([N+](=O)[O-])o2)n1	?	-2	6.6	-19	98
CCCC1S/C(=N/N=C/c2ccco2)NC1=O (centres undefined)	-4%	-28	-1.6	15	7
CC1O[C@@H](O[C@H](C)CC[C@@H](C)O[C@H]2OC(C)[C@@H](O)C[C@H]2O)C(O)C[C@H]1O (some centres undefined)	.	.	-1.1	.	-5
COC(=O)C1=C(C(=O)OC)SC2(S1)C(C(=O)OC)=C(C(=O)OC)SC1=C2c2cccc(C)c2NC1(C)C	5%	-28	-2.8	-3	14
Cc1ccccc1OCC(=O)NNC(=O)Cc1ccc(S(=O)(=O)N2CCOCC2)s1	.	.	-2.1	.	-2
CCCCNC(=O)CSc1nc2cc3c(cc2c(=O)n1CCCN(CC)CC)OCO3	3%	-32	-4.7	4	13
CN(Cc1ccon1)C(=O)CC1C(=O)NCCN1CC1CCCCC1 (centres undefined)	13%	.	-0.5	4	2
CCN1CN(Cc2ccco2)CNC1=S	4%	-22	1.0	12	0
Cc1ccc(S[C@@H](CCN2CC[C@H](O)CCC2=O)c2ccccc2)cc1	.	.	-1.9	.	-1
O=C(O)Cc1sc(Nc2ccccc2)nc1-c1cccs1	-8%	.	-0.5	.	-2
CCN1/C(=C/C(=O)c2ccco2)Sc2ccccc21	65%	-14	-14	-9	50
COc1cccc(CNC(=O)CCC2CCCN(C(=O)c3cc(C)on3)C2)c1 (centres undefined)	-2%	.	-1.2	9	-4
O=C(CCn1cccc1)Nc1ccc(OC(F)(F)F)cc1	-5%	.	-0.3	0	-4
NC(=O)CSc1ccc(-c2ccc(F)cc2)nn1	1%	.	-6.1	2	2
COc1cccc(C(=O)COC(=O)CCC(=O)NC2CCCCC2)c1	-3%	.	-0.1	2	-7
CCS(=O)(=O)N1Cc2ccccc2CC1C(=O)N1CCN(c2cccc(C)c2C)CC1 (centres undefined)	0%	-26	8.4	2	-2
O=C(O)C1CC=C(Cl)CC1C(=O)NC1CCCCC1 (centres undefined)	.	.	0.2	.	-8
Cc1nc2ccccc2c(=O)n1-c1ccccc1[N+](=O)[O-]	4%	.	.	-1	-5

(cont.)
SMILES	Mtb growth	YopH inh	RecA intein inh	Arbovirus anti	Mtb bLac sens	others
COCCNc1nc(-c2ccccc2)nc2c1oc1ccccc12	13%	.	3.9	.	88
Cc1ccc2cn[nH]c2c1[N+](=O)[O-]	3%	.	-0.8	-6	-1
CCc1noc(C)c1C(=O)Nc1cc(Cl)ccc1N1CCCC1	.	.	1.2	.	0
COc1ccc(-c2nc3ccc(N4CCCC4)cc3c(=O)[nH]2)cc1OC	.	-17	-5.7	-9	6
Cn1c(CSc2nnc(SCc3ccccc3)s2)nc2ccccc21	4%	-17	11	5	3
COc1ccccc1C1C(C(C)=O)=C(C)N=c2s/c(=C\c3cc(OC)c(OC)c(OC)c3)c(=O)n21 (centres undefined)	-2%	17	0.3	-3	-8
CCCN(CCC)CCNC(=O)c1cc2c(C)nc3ccccc3c2o1	-13%	1	-0.3	1	-1
COc1cc(/C=C/C(=O)Nc2nc3ccc(S(=O)(=O)NC(C)C)cc3s2)cc(OC)c1OC	-8%	-20	-2.3	4	9
CCOC(=O)c1cc(=O)c2ccc(OCc3ccccc3)cc2o1	.	.	1.5	.	90
CC(C)CNc1oc(-c2ccco2)nc1C#N	-2%	-31	-1.0	-4	2
COc1cccc(NC(=O)c2nnn(Cc3ccc(Br)cc3F)c2N)c1	1%	-11	-0.7	-7	1	Arbovirus anti repeat=-10
O=C1c2ccccc2C(=O)N1CCCC(=O)N1CCCc2ccccc21	-6%	-16	6.5	14	-4
CC(CNC(=O)CCS(=O)(=O)c1cc2c(cc1Cl)NC(=O)CO2)c1ccccc1 (centres undefined)	.	.	1.2	.	-8
Clc1nc2c(ccc3ccccc32)[nH]1	-4%	.	1.0	.	-7
O=C(NCc1ccccc1F)C(c1ccccc1)c1ccccc1	.	.	2.2	.	3
Cc1ccccc1CSCC(=O)NNC(=S)NCC1CCCO1 (centres undefined)	.	.	-0.4	.	4
COC(=O)CN1C(=O)C2(C(C#N)=C(N)Oc3cc(C)oc(=O)c32)c2ccccc21 (centres undefined)	-1%	-29	0.8	4	-15
CN(C)/C=C/C(=O)c1cnc(-c2ccc(Cl)cc2)s1	4%	.	1.7	17	-1
Cc1ccc(-c2nn(CC(=O)NCc3cc(-c4nn(C)c(=O)c5ccccc45)ccc3C)c(=O)c3ccccc23)cc1	.	-28	2.6	-30	14
N#Cc1cc(-c2ccccc2)nnc1Sc1ccccc1	-2%	-26	-3.0	-4	-6
N#CCc1ccc(NC(=O)Cn2c(=O)oc3ccccc32)cc1	.	.	0.3	.	0
COc1ccc(Cl)cc1NC(=O)CN(C(=O)c1ccco1)C1CCCCC1	-2%	-45	4.1	-11	7
O=C(C1CCCO1)N1CCN(S(=O)(=O)c2ccc(Br)cc2)CC1 (centres undefined)	.	.	-1.4	.	-4
CC(=O)C1C(c2ccc(F)cc2)c2c(noc2C)CC1(C)O (centres undefined)	-1%	.	-2.0	.	-5
CCN(CCO)C(=O)c1ccc2oc(Cc3ccc(Cl)cc3)nc2c1	.	.	-3.0	.	6

Remaining list, next part.
SMILES	Mtb growth	YopH inh	RecA intein inh	Arbovirus anti	Mtb bLac sens	others
O=C(O)CCCN1C(=O)/C(=C\c2ccccc2OCc2ccccc2)SC1=S	.	.	8.0	.	0
CCN(CC(=O)Nc1ccc(NC(C)=O)cc1)C(=O)c1ccc2ccccc2c1	.	.	0.3	.	-5
O=C(Nc1ccc(N2CCN(C(=O)c3ccco3)CC2)c(Cl)c1)c1cc2ccccc2o1	.	-27	12	-9	100
NNC(=O)CNC(=O)C12CC3CC(CC(C3)C1)C2	-3%	.	1.2	12	-8
C/C(=N/NC(=O)CSc1nc2ccccc2s1)c1ccncc1	-5%	.	4.8	.	1
O=C(Nc1ccc2c(c1)OCO2)c1ccccc1SCC(=O)N1CCCC1	.	0	-0.5	8	-9
Cc1cccc(N=Nc2c(O)[nH]c3ccc(F)cc23)c1	3%	.	.	4	3
Cc1nc2c(c(N3CCOCC3)n1)OCC(=O)N2	-3%	-26	-4.6	5	-28
CN(C(=O)c1nn(C)c2c1CSc1ccccc1-2)c1ccc(F)cc1	.	.	1.6	.	-4
O=C(N/N=C/c1cn(-c2ccccc2)nc1-c1cccnc1)c1ccccc1	-10%	.	5.8	1	2
Cc1cc(=O)oc(C)c1C(=O)N[C@@H](Cc1ccccc1)C(=O)O	.	.	-1.7	.	1
O=C(C1CC(=O)N(c2ccc3c(c2)OCCO3)C1)N1CCN(c2ccccc2)CC1 (centres undefined)	5%	.	0.4	5	-3
CCOC(=O)C1=C(C)N(CCCC(=O)O)C(=O)NC1c1ccccc1OS(=O)(=O)c1ccc([N+](=O)[O-])cc1 (centres undefined)	-5%	.	-4.3	.	-1
CCN(CC)S(=O)(=O)c1cc(NC(=O)C2Cc3ccccc3C(=O)O2)ccc1C (centres undefined)	-11%	.	1.9	.	-8
CCCSc1nnc(N)s1	70%	-29	-0.2	7	42
NC(=O)CSc1nnc(Cc2ccc3c(c2)OCO3)n1C1CCCCC1	-6%	-23	-2.1	6	-10
CN1CCN(/N=C/c2c(O)n(C)c(=O)n(C)c2=O)CC1	3%	.	8.7	4	3
O=C(CCC1CCCC1)NCCCNC(=O)CCC1CCCC1	.	.	1.2	.	6
Cc1ccc(C)c(S(=O)(=O)N2CCN(C(=O)C3CCN(c4ncnc5sc(C)c(C)c45)CC3)CC2)c1	.	.	5.6	.	20
COc1cc(OC)c(C2N(c3ccc(Cl)c(Cl)c3)C(=O)C3CCCN32)cc1OC (centres undefined)	-2%	-19	-0.9	0	0
CC(Sc1nc2c(cc1C#N)CCCCC2)C(=O)O (centres undefined)	1%	.	-2.7	0	-3
N#CCCN1CCN(Cn2c3ccccc3c3ccccc32)CC1	2%	-5	6.0	-9	19
COc1ccc(Oc2ccc(N/C=C3\CCCC3=O)cc2)cc1	68%	-45	-2.5	-12	68
Cc1ccc(-n2nc3c(=O)n(CC(=O)NCCc4ccco4)nc(C)c3c2C)cc1	.	.	3.3	.	0
COCCNC(=O)NC(=O)COC(=O)Cc1ccc2c(c1)OCCO2	-9%	-7	-1.0	2	-18

Gathered by group: the compounds so far with fluorine.
SMILES	Mtb growth	YopH inh	RecA intein inh	Arbovirus anti	Mtb bLac sens	others
Cc1nc2ccc(S(=O)(=O)NCC(=O)Nc3ccc(F)cc3)cc2s1	.	.	-0.4	.	-3
O=C(CCn1cccc1)Nc1ccc(OC(F)(F)F)cc1	-5%	.	-0.3	0	-4
NC(=O)CSc1ccc(-c2ccc(F)cc2)nn1	1%	.	-6.1	2	2
COc1cccc(NC(=O)c2nnn(Cc3ccc(Br)cc3F)c2N)c1	1%	-11	-0.7	-7	1	Arbovirus anti repeat=-10
O=C(NCc1ccccc1F)C(c1ccccc1)c1ccccc1	.	.	2.2	.	3
CC(=O)C1C(c2ccc(F)cc2)c2c(noc2C)CC1(C)O (centres undefined)	-1%	.	-2.0	.	-5
Cc1cccc(N=Nc2c(O)[nH]c3ccc(F)cc23)c1	3%	.	.	4	3
CN(C(=O)c1nn(C)c2c1CSc1ccccc1-2)c1ccc(F)cc1	.	.	1.6	.	-4

(further entries)
SMILES	Mtb growth	YopH inh	RecA intein inh	Arbovirus anti	Mtb bLac sens	others
COc1c(O)cc2oc(-c3ccc(O)c(O)c3)cc(=O)c2c1O	-13%	.	1.6	.	-3
CC(CNC(=O)c1cc(COc2c(F)cccc2F)on1)Oc1cccnc1 (centres undefined)	.	.	-2.6	.	-2
CCOC(=O)Cn1cc(C#N)c2ccccc21	-10%	.	.	6	-3
COc1ccc(S(=O)(=O)N2CCOCC2)cc1N(C)S(=O)(=O)c1ccc(C)cc1	.	.	-1.3	.	6
CC(=O)c1ccc(NC(=S)NCCCN2CCOCC2)cc1	-1%	.	1.3	2	-1
Cc1noc(C)c1COc1cccc(C(=O)OC(C)C#N)c1 (centres undefined)	5%	.	11	-8	0
COc1ccc(CNC(=O)CN(Cc2ccco2)C(=O)CNS(=O)(=O)c2ccc(F)cc2)cc1	.	.	-1.2	.	0
Cc1[nH]c2ccccc2c1C(=O)COC(=O)C1CC(=O)N(Cc2ccccc2)C1 (centres undefined)	4%	-25	1.2	-2	19
Cc1cc(C(=O)OCC(=O)N2CC(=O)Nc3ccccc32)c(C)n1-c1ccccc1	-4%	-14	-1.3	16	-4
Nc1nc(SCc2ccc(Br)cc2)n[nH]1	.	.	0.7	.	9
Cc1ccc(CSCCNC(=O)c2cccc([N+](=O)[O-])c2)cc1	0%	-27	0.0	5	5
COc1cc(C)c(S(=O)(=O)NCc2ccc3c(c2)OCO3)cc1C	12%	-9	1.3	-6	-11	Arbovirus anti repeat=-10
CCn1cc(C(=O)OCC(=O)Nc2ccc(S(=O)(=O)N3CCCC3)cc2)c(=O)c2ccc(C)nc21	-1%	-36	-1.2	1	5
C=CCn1c(SCC(=O)Nc2nnc(CC)s2)nnc1-c1cccnc1	2%	-24	-0.6	0	-1
CC(=O)c1ccc(OCC(O)CN2CCc3ccccc3C2)cc1 (centres undefined)	.	.	2.5	.	-2
CCCN1CCC(=O)N([C@H](CSc2ccc(C)cc2)c2ccccc2)CC1	-1%	.	1.5	.	15
Cc1[nH]c(=O)c(C#N)c(C)c1Br	-8%	-23	-3.8	9	1
COc1ccc(N2CCN(C(=O)c3oc4ccccc4c3NC(=O)Cc3ccc(OC)c(OC)c3)CC2)cc1	.	.	0.0	.	3
COc1cccc2cc(C(=O)OC(C)C(=O)c3ccc(C)cc3)c(=O)oc12 (centres undefined)	.	.	-5.0	.	-6
CC1Sc2ccc(C(=O)Nc3ncccc3O)cc2NC1=O (centres undefined)	.	.	0.7	.	-10

Screening results as filed in PubChem BioAssay.
